# Source: PubChem
# Sa helicase inh – blocks Staphylococcus aureus DNA helicase. 120,000 tested, 0.05% active. purified S. aureus helicase, fluorescence unwinding assay; about half of the hits fall short of the stated cut. inhibition, %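 (tested at about 80 µM)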;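 active means both duplicates at 50% or more, or one of them with a favoured structure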;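 further: 0% = mean of negative control wells and 100% = mean of positive control wells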
# MgrA-DNA mod – modulators of Staphylococcus aureus MgrA DNA binding; inhibition, %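 (about 10 µg/mL by stock and volumes)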; fluorescence polarization; 84,000 tested, 0.13% active;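 active means above 50% in either of two replicates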;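 further: 0% = protein plus DNA without compound and 100% = DNA alone without protein; higher means less MgrA bound to DNA so lower polarization; one replicate is shown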
# The depositor's hits bear a star; . = no result given.
1) CCCCN(C(C)(C)C)S(=O)(=O)c1ccc(C)cc1
2) O=C(OCC(=O)N1CCCC1=O)c1ccc2ncsc2c1
3) CC(=O)Nc1ccccc1OCC(=O)Nc1cc(C)cc(C)c1
4) O=C(CN1C(=O)c2ccccc2C1=O)OCc1cc(=O)n2cc(Br)ccc2n1
5) Cc1ccc(-c2nn(CC(=O)NC3CCCc4ccccc43)c(=O)c3ccccc23)cc1 (stereo not drawn)
6) CCCn1c(N)c(N2CCCCC2)c(=O)n(CC(=O)Nc2ccccc2)c1=O

Screen / compound no.	1	2	3	4	5	6
MgrA-DNA mod	-2.3	.	.	.	-1.2	.
Sa helicase inh	.	-19	-12	8	-1	-4

7) NC(=S)N/N=C1/C2C3CC4C5C3C1C5C1(OCCO1)C42 (stereo not drawn)
8) CSc1ccc(CN2CCOCC2)cc1
9) CCn1c(SCc2ccc(C#N)cc2)nnc1-c1ccco1
10) COC(=O)c1cscc1OC
11) O=C(CC(c1ccccc1)c1ccccc1)N1CCN(c2ccccn2)CC1
12) CCOC(=O)c1nc(Cn2cc(I)cn2)no1

Screen / compound no.	7	8	9	10	11	12
MgrA-DNA mod	.	-4.8	.	-1.4	2.5	6.8
Sa helicase inh	0	-7	5	.	2	2

# Nos. 7–9, quoted:
7) NC(=S)N/N=C1/C2C3CC4C5C3C1C5C1(OCCO1)C42 (stereo not drawn)
8) CSc1ccc(CN2CCOCC2)cc1
9) CCn1c(SCc2ccc(C#N)cc2)nnc1-c1ccco1

Screen / compound no.	7	8	9
MgrA-DNA mod	.	-4.8	.
Sa helicase inh	0	-7	5

# Following part
13) CCC1CCCCN1C(=O)/C=C/c1ccc(C)cc1 (stereo not drawn)
14) Cc1ccc(S(=O)(=O)NCC2OCCc3ccccc32)cc1 (stereo not drawn)
15) CCc1cc(=O)[nH]c(SCc2cccc(Cl)c2)n1
16) O=c1[nH]nc(N2CCN(c3nc(CSc4ccccc4)nc4sc5c(c34)CCC5)CC2)c(=O)[nH]1
17) O=C(Nc1ccc(C(F)(F)F)cc1)c1ccc(-c2ccccc2F)cc1
18) CCN=c1scc(-c2ccc(O)c(C(N)=O)c2)n1/N=C/c1ccc2c(c1)OCCO2

Screen / compound no.	13	14	15	16	17	18
MgrA-DNA mod	6.2	1.0	-0.6	.	2.2	.
Sa helicase inh	19	7	.	10	.	-10

19) C/C(=N\N=C1\NC(=O)CS1)c1cccs1
20) O=C1c2ccccc2-c2onc3c(Br)cc(NCc4ccccc4)c1c23
21) CC(C(=O)N1CCCCC1)N1c2cccc3cccc(c23)S1(=O)=O (stereo not drawn)
22) O=C(CSC1=Nc2ccccc2C2=NC(CC(=O)NCc3ccccc3)C(=O)N12)NCc1ccco1 (stereo not drawn)
23) CC(=O)Nc1ccc(CNCCc2nnc3ccccn23)cc1
24) CCOC(=O)c1c(C)c(C#N)c(N)n1-c1ccc(C)cc1

Screen / compound no.	19	20	21	22	23	24
MgrA-DNA mod	.	36	3.2	.	.	-0.8
Sa helicase inh	-28	-67	9	22	-7	.

25) CN(CCO)C(=O)c1ccc2c(c1)C(=O)c1ccccc1-2
26) COc1cccc(/C=C2\CN(C)C/C(=C\c3cccc(OC)c3)C2=O)c1
27) O=C(O)CNc1nc(-c2ccccc2)nc2ccccc12
28) Cc1oc(-c2ccccc2Cl)nc1Cn1cccc1C1=NC(c2ccccc2)CO1 (stereo not drawn)
29) COC(=O)CC(=O)N1CCN(c2ccc(Cl)c(Cl)c2)CC1
30) CCOC(=O)c1sc2nc(C)nc(Cl)c2c1C

Screen / compound no.	25	26	27	28	29	30
MgrA-DNA mod	2.5	-2.5	1.6	.	-0.9	.
Sa helicase inh	3	4	-1	8	.	-8

31) CN(CC(=O)Nc1ccc(OC(F)(F)F)cc1)C(=O)C1CC(=O)N(C2CCCC2)C1 (stereo not drawn)
32) CCOc1ccc(N(CC)C(=O)C2CCCN2S(=O)(=O)c2cccc3nsnc23)cc1 (stereo not drawn)
33) COc1ccc(CC(=O)NCc2ccc3[nH]c4c(c3c2)CCCC4)cc1
34) CCn1c(=O)cc(SCC(=O)NC(C)C)c2ccccc21
35) CCOC(=O)C1=C(C)N=c2s/c(=C3\C(=O)N(CC)c4ccccc43)c(=O)n2C1/C=C/c1ccccc1 (stereo not drawn)
36) Cc1ccc(NC(=O)C(c2ccccc2)N2CCCCC2)cc1 (stereo not drawn)

Screen / compound no.	31	32	33	34	35	36
MgrA-DNA mod	.	.	0.9	.	-0.8	.
Sa helicase inh	-9	23	15	-16	.	1

37) NC(=O)NC(=O)CC1S/C(=N/N=C/c2ccccc2)NC1=O (stereo not drawn)
38) COC(=O)C(Cc1csc2ccc(Cl)cc12)NC(=O)c1ccc(C(F)(F)F)cc1 (stereo not drawn)
39) O=C(NC1CCCC1)c1c[nH]c2ccc(S(=O)(=O)Nc3ccccc3F)cc2c1=O
40) O=C(c1cc(=O)[nH]c2ccccc12)N(Cc1ccco1)Cc1cccs1
41) CSc1cccc(N2CC(C(=O)N3CCN(S(=O)(=O)Cc4ccccc4)CC3)CC2=O)c1 (stereo not drawn)
42) CN(c1ncc(C(F)(F)F)cc1Cl)n1cccc1

Screen / compound no.	37	38	39	40	41	42
MgrA-DNA mod	.	-2.1	1.2	.	.	-2.0
Sa helicase inh	4	.	5	7	-8	.

43) COc1cccc(-c2cc(C(=O)N3CCN(C(=O)c4ccco4)CC3)on2)c1
44) COc1ccc(C(=O)On2c(-c3ccccc3F)nc3ccccc3c2=O)cc1Br
45) O=C(O)C1CCC(=O)N1C1CCCC1 (stereo not drawn)
46) N#CCCn1cc(/C=N/NC(=O)c2cnccn2)c2ccccc21
47) O=C(Nc1ccccc1-c1nc(-c2ccc(Cl)cc2)no1)C(F)(F)F
48) Cc1cccc(OCC(O)CN2CCCCC2)c1 (stereo not drawn)

Screen / compound no.	43	44	45	46	47	48
MgrA-DNA mod	0.7	0.5	.	.	-0.1	.
Sa helicase inh	-1	.	8	8	.	27

49) O=C(CSc1ccccn1)Nc1ccc(OC(F)(F)F)cc1
50) O=C(NCc1ccccc1)c1cccc(S(=O)(=O)N2CCN(c3ccccc3)CC2)c1
51) Cc1cc2c(cc3c(SCc4ccccc4)nncn32)o1
52) CN(C)Cc1ccccc1CNC(=O)CCC1CCCC1
53) N#Cc1sc2sc(C#N)c(-c3ccco3)c2c1N
54) CC(C)CC(=O)N1CCN(S(=O)(=O)c2ccccc2)CC1

Screen / compound no.	49	50	51	52	53	54
MgrA-DNA mod	-0.2	.	1.9	.	16	1.4
Sa helicase inh	.	-8	-1	-14	.	-3

55) C=CCn1ncc(CO)c1C
56) Nc1nc(CSc2ccccn2)nc(Nc2ccccc2)n1
57) O=C(c1ccccc1)c1ccccc1N1C(=O)C=CC1=O
58) CC1(O)c2ccccc2C(=O)N1Cc1ccccc1 (stereo not drawn)
59) CCCc1[nH]n(-c2ccc(F)cc2)c(=O)c1C=N
60) CC1CCN(S(=O)(=O)c2ccc(NC(=O)CSc3nnnn3C)cc2)CC1

Screen / compound no.	55	56	57	58	59	60
MgrA-DNA mod	.	0.0	7.2	.	-1.2	-0.7
Sa helicase inh	12	8	.	-2	5	6

61) O=C(O)CCCOc1ccc2c(c1)OCO2
62) CC(C)NC(=O)c1ccc2c(c1)N(Cc1ccc(Cl)cc1)C(=O)c1ccccc1S2=O (stereo not drawn)
63) COc1cc2ccccc2nn1
64) Cc1c(S(=O)(=O)NCc2ccc(S(N)(=O)=O)cc2)sc2ccc(Cl)cc12
65) COc1ccc(NC(=S)N(C(C)C)C2CCN(C(C)C)CC2)cc1Cl
66) COc1ccccc1N1CCN(C(=O)c2nc(S(=O)(=O)Cc3ccccc3)ncc2Cl)CC1

Screen / compound no.	61	62	63	64	65	66
MgrA-DNA mod	-0.9	.	-2.8	-2.2	1.8	.
Sa helicase inh	6	12	.	.	12	0

67) CN1CC(=O)NC1=NC(=O)c1cc(F)c(F)cc1Cl
68) COc1ccc(Cl)cc1NCC(=O)Nc1ccc2c(c1)OCCO2
69) COc1cc(-c2noc(CCC(=O)Nc3cccc(C)c3C)n2)cc(OC)c1OC
70) O=C(O)c1cc(=O)c2cc(Cl)ccc2o1
71) CC(C)=NOC(=O)Nc1ccc(Cl)cc1
72) CC1CCCC(NC(=O)COC(=O)COc2ccccc2C#N)C1C (stereo not drawn)

Screen / compound no.	67	68	69	70	71	72
MgrA-DNA mod	.	.	.	.	.	.
Sa helicase inh	-7	-11	8	-2	28	-11

73) CCOC(=O)c1ccc(Nc2ncnc3c2cnn3Cc2ccccc2)cc1
74) COC(=O)/C(C#N)=C/c1ccc(Cl)cc1
75) COc1ccc(Cl)cc1NC(=O)c1ocnc1C
76) O=C1CSc2ccc(C(=O)NCc3c(F)cc(F)cc3F)cc2N1
77) COc1cc(-c2nnc(SCC(=O)N3CCCCC3C)o2)cc(OC)c1OC (stereo not drawn)
78) Clc1ccc(-c2csc3ncnc(NCc4ccco4)c23)cc1

Screen / compound no.	73	74	75	76	77	78
MgrA-DNA mod	.	.	.	0.0	2.3	.
Sa helicase inh	-8	25	19	7	12	8

79) OCCn1c2ccccc2c2cc(Cl)ccc21
80) O=C(O)c1ccccc1N1Cc2ccccc2C1=O
81) O=C(O)/C=C/C(=O)NC1CC1
82) COC(=O)c1ccccc1S(N)(=O)=O
83) COc1cccc(CN(CCO)Cc2ccccc2)c1OC
84) O=S(=O)(c1ccc(Cl)nc1)N1CCCC1

Screen / compound no.	79	80	81	82	83	84
MgrA-DNA mod	1.5	-0.2	-1.2	.	-2.0	0.1
Sa helicase inh	-2	.	3	4	-5	-14

85) CCCc1nnc(NC(=O)C2CC(=O)N(C3CCCC3)C2)s1 (stereo not drawn)
86) CCOC(=O)N1CCN(CC(O)COC2CC(C)CCC2C(C)C)CC1 (stereo not drawn)
87) O=C(O)c1cc(S(=O)(=O)NCCN2CCNC2=O)ccc1O
88) CNCCCc1ccco1
89) NCC1CCCN(CCc2ccccc2)C1 (stereo not drawn)
90) N#Cc1c(-c2c(O)[nH]c3ccccc23)c2c(-c3ccncc3)[nH]nc2oc1=N

Screen / compound no.	85	86	87	88	89	90
MgrA-DNA mod	-1.5	.	-4.4	-1.1	-1.4	0.8
Sa helicase inh	-3	11	.	12	1	2

91) Cc1ccc2c(COC(=O)C3CSC4(C)CCC(=O)N34)cc(=O)oc2c1C (stereo not drawn)
92) Cc1ccc(C(=O)NCC(=O)OC2CCCCC2=O)cc1C (stereo not drawn)
93) CCOC(=O)c1cc(-c2cccs2)nn1CCC#N
94) Cc1ccc(COn2c(-c3ccccc3)nc3ccccc3c2=O)cc1
95) Nc1ncc(-c2cc3ccccc3oc2=O)s1
96) CC1CCN(S(=O)(=O)c2cc(Br)cc(C(=O)OCC(=O)N3CC(=O)Nc4ccccc43)c2)CC1

Screen / compound no.	91	92	93	94	95	96
MgrA-DNA mod	.	.	.	1.4	0.2	.
Sa helicase inh	-6	-7	15	.	1	3

97) COc1ccc(C2C(C(=O)N3CCN(Cc4ccc5c(c4)OCO5)CC3)CC(=O)N2c2ccc(OC)cc2)cc1 (stereo not drawn)
98) CCOC(=O)Cn1cnc2c(nnn2-c2ccc(C)cc2)c1=O
99) COC(=O)c1cn(CC(=O)OCC(=O)Nc2ccc(F)cc2)c2ccccc12
100) O=C(CSc1ncnc2sc3c(c12)CCC3)NCCN1C(=O)CSC1=O
101) O=C(/C=C/c1ccccc1)Nc1ccc2c(c1)OCO2
102) CCN(Cc1ccccc1)C(=O)c1ccc(C(=O)N(CC)Cc2ccccc2)cc1

Screen / compound no.	97	98	99	100	101	102
MgrA-DNA mod	.	-0.8	.	.	.	0.2
Sa helicase inh	28	18	-15	-7	-2	5

103) CC(C)CN(CC(C)C)S(=O)(=O)N1CCC(C(=O)N2CCOCC2)CC1
104) CCN(CC)N=Nc1ccc(S(=O)(=O)Nc2nc(C)cc(C)n2)cc1
105) O=C(c1ccccc1C(F)(F)F)N1CCCN(CCc2ccccc2)CC1
106) Cc1onc(-c2c(Cl)cccc2Cl)c1C(=O)Nc1ccc(Br)cn1
107) Cc1ccc(Cc2c(C)nc(N3CCCC3)[nH]c2=O)cc1
108) CCn1cc(C(C)(C)C)c(C#N)c1NC(C)=O
109) N#C/C(=N\Nc1cccc(C(F)(F)F)c1)C(=O)c1ccsc1
110) CC(O)CNC(=O)C1CC(=O)N(c2ccccc2)C1 (stereo not drawn)

Screen / compound no.	103	104	105	106	107	108	109	110
MgrA-DNA mod	-5.8	-2.5	-0.2	0.4	.	0.4	0.2	-0.7
Sa helicase inh	-1	12	.	.	15	15	.	17

# Profiles, looked up by structure.
# `CCn1cc(C(C)(C)C)c(C#N)c1NC(C)=O` is listed with MgrA-DNA mod: 0.4; Sa helicase inh: 15
# `O=C(c1ccccc1C(F)(F)F)N1CCCN(CCc2ccccc2)CC1` is listed with MgrA-DNA mod: -0.2; Sa helicase inh: .
# `N#C/C(=N\Nc1cccc(C(F)(F)F)c1)C(=O)c1ccsc1` is listed with MgrA-DNA mod: 0.2; Sa helicase inh: .

# Only part of the results is shown (hit frequency here may not be typical).
